NS1 function inh: inhibitors of influenza NS1 protein function; S. cerevisiae slowed by influenza A NS1, growth recovery by OD600; Potency, µM (top dose mostly 46.1 µM), without a hit: at the highest dose activity, positive = more growth; 270,000 compounds, 0.4% hits; note: actives are rising curves; nearly all actives have a fitted effect of over 50% in size
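OD600 was taken as the measure of yeast growth restored by compound in an NS1-expressing S. cerevisiae strain. Cells had been washed out of glucose medium and diluted 1:100 into galactose -URA medium, pH 6.0.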
SARS PLP yeast: SARS-CoV PLP inhibition in yeast; S. cerevisiae expressing SARS-CoV PLpro, growth rescue; control for the full effect not named in the record; Potency, µM (doses to about 32.9 µM), inactives show at the highest dose activity, positive = growth rescue; 330,000 compounds, 0.19% hits; note: 0% is about no effect; nearly all actives have a fitted effect of over 55% in size; growth read by luminescence after 48 h
RE007 growth inh: less growth of the S. pombe RE007 Vpr strain; S. pombe RE007 Vpr strain, BacTiter-Glo ATP luminescence, 24 h; control for the full effect not named in the record; Potency, µM (doses to about 92.2 µM), inactives show at the top dose activity change, negative = less growth; 360,000 compounds, 0.21% hits; active = well fitted falling curve with a large enough effect; inconclusive = small, poorly fitted or top-dose-only effect; inactive = no such curve, though single readings can be large or run the other way;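 note: % is set by controls: 0 for no effect and ±100 for the full control effect; nearly all actives have a fitted effect of over 50% in size; the assay follows cell death caused by Vpr and the record does not say whether a fall means rescue or toxicity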
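Fission yeast RE007 carrying one integrated HIV-1 vpr copy, seeded at OD 0.01 in PMG+AL medium with 23 nL pinned compound. Grown 24 h at 30 degrees; viability read by BacTiter-Glo luminescence after 5 min.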
Cruzain noTriton: cruzain (T. cruzi) inhibition without detergent; P25779; purified cruzain, Z-FR-AMC fluorescence, no detergent; Potency, µM, without a hit: max response, negative = inhibition, most hits filed as inhibitors; 200,000 compounds, 2.3% hits; AID 1476; active = well fitted curve in the direction sought with a large enough effect; inconclusive = small, poorly fitted or top-dose-only effect, or another doubt; inactive = no such curve, though single readings can be large; an effect the other way counts as inactive or inconclusive;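 note: plate controls were enzyme without inhibitor for no effect and buffer without enzyme for full effect; nearly all actives have a fitted effect of over 40% in size; top concentration of the series not given in the record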
Target sequence (P25779 123-467 limits assumed): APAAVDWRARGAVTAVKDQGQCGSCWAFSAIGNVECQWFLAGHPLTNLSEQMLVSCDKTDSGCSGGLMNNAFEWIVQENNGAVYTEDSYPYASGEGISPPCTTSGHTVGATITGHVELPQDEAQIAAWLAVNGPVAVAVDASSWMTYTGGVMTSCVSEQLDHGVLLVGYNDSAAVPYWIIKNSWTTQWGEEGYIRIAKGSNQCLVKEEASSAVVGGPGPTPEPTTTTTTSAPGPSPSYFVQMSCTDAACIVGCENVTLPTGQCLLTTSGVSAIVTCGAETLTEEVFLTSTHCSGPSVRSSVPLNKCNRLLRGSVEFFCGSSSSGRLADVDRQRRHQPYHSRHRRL
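Detergent-free condition (0.00005% Triton X-100) in acetate buffer pH 5.5 with DTT. 1.5 nM enzyme and compound were pre-mixed 15 min, then 2 uM Z-FR-AMC substrate added; reaction progress from fluorescence change between first and third reads (60 s).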
Cruzain Triton: cruzain (T. cruzi) inhibition with detergent; purified cruzain, Z-FR-AMC fluorescence, 0.01% Triton; Potency, µM, inactives show max response, negative = inhibition, actives largely listed as inhibitors; 200,000 compounds, 0.43% hits; active = well fitted curve in the direction sought with a large enough effect; inconclusive = small, poorly fitted or top-dose-only effect, or another doubt; inactive = no such curve, though single readings can be large; an effect the other way counts as inactive or inconclusive;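 note: plate controls were neutral wells for no effect and buffer without enzyme for full effect; nearly all actives have a fitted effect of over 40% in size; top concentration of the series not given in the record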
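Cruzain (1.5 nM) preincubated 15 min at RT with compound in 100 mM sodium acetate pH 5.5, 5 mM DTT, 0.01% Triton X-100. Reaction started with 2 uM Z-FR-AMC; AMC fluorescence (ex 360/em 450 nm) change over 60 s gave rate.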
2A StopGo: lowers the luciferase signal of an FMDV 2A StopGo reporter. human cells with a luciferase reporter of 2A StopGo recoding; control for the full effect not named in the record. Potency, µM (titrated, usually from 57.9 µM), for the others: top-dose signal change, negative = less light. 410,000 compounds, 1.2% hits; active = well fitted falling curve with a large enough effect; inconclusive = small, poorly fitted or top-dose-only effect; inactive = no such curve, though single readings can be large or run the other way; tested in HEK293T cells; note: % is set by controls: 0 for no effect and ±100 for the full control effect; nearly all actives have a fitted effect of over 45% in size; luciferase light after 4 h
MARV entry inh: Marburg virus entry inhibition | Potency, µM (series often up to 37.8 µM), for the others: top-dose activity change, negative = inhibition, actives largely listed as inhibitors | Marburg virus pseudotyped entry inhibition, cell reporter; control for the full effect not named in the record; about a third of the inactives were read at about 46 µM | 300,000 compounds, 1.8% hits; active = well fitted inhibition curve with a large enough effect; inconclusive = small, poorly fitted or top-dose-only effect, or effect the other way; inactive = flat fitted curve, though single readings scatter; tested in HEK293 cells; about a fifth of its hits are not listed in these tables; note: % is set by controls: 0 for no effect and ±100 for the full control effect; luciferase read-out
LASV entry inh: inhibitors of Lassa virus binding or cell entry; Lassa virus pseudotype entry inhibition, cell reporter; control for the full effect not named in the record; Potency, µM (doses to about 37.9 µM), without a hit: top-dose activity change, negative = inhibition, most hits filed as inhibitors; 300,000 compounds, 1.2% hits; AID 540256; active means well fitted inhibition curve with a large enough effect; inconclusive means small, poorly fitted or top-dose-only effect, or effect the other way; inactive means flat fitted curve, though single readings scatter; tested in HEK293 cells; note: % is set by controls: 0 for no effect and ±100 for the full control effect; nearly all actives have a fitted effect of over 50% in size; luciferase read-out
* marks the source's active call; other numbers are inactive results; ? = inconclusive; . = not tested or not shown; & = joins results of further samples; [ ] = dose if it differs, or a comment. Unless noted, calls come from the whole dose curve; as a rule, active means well fitted rising curve with a large enough effect; inconclusive means small, poorly fitted or top-dose-only effect; inactive means no such curve, though single readings can be large or run the other way. Potency is the fitted concentration of half-maximal effect.

entry	smiles	Cruzain noTriton	RE007 growth inh	Cruzain Triton	MARV entry inh
1	Cc1ccc(S(=O)(=O)N2CCCC2C(=O)NCCc2ccccc2)cc1 (stereo not given)	.	2%	.	22%[46.1 µM]
2	Cc1cc(NC(=O)CCN2C(=O)/C(=C\c3ccccc3)SC2=S)no1	.	4%	.	0%
3	Brc1c(CSc2nncn2-c2ccccc2)nc2ncccn12	-12%	5%	-3.6%	19%
4	C/C(CCN1CCc2nc(-c3ccccc3)c(-c3ccccc3)cc2C1)=N\O[C@H](C)c1cn([C@H](CO)Cc2ccccc2)nn1	?	.	-2.7%	?
5	NC(=O)c1c(Br)n(C2OC(CO)C(O)C2O)c2ncnc(N)c12 (stereo not given)	.	-1%	.	?
6	Cc1ccccc1C(=O)NCc1nnc(SCC(=O)N2CCN(c3ccccc3)CC2)n1C	12%	-3%	5.0%	1%[46.1 µM]
7	CCOc1ccc(NC(=O)c2cc(=O)c3cc(CC)ccc3o2)cc1	0%	.	-2.4%	?
8	Cc1csc2c(N3CCN(S(=O)(=O)c4ccc(Cl)cc4)CC3)ncnc12	.	3%	.	?

entry	SARS PLP yeast	NS1 function inh	LASV entry inh	2A StopGo
1	-1%	-2%	-1%	14%
2	0%	-1%	3%	39%[activator]
3	14%	18%	8%	13%
4	7%	10%	-24%	.
5	.	.	?	-21%
6	4%	3%	13%	-23%
7	.	.	10%[46.1 µM]	7%
8	0%	-3%	2%[46.1 µM]	-28%

Additional compounds.
entry	smiles	Cruzain noTriton	RE007 growth inh	Cruzain Triton	MARV entry inh
9	CCCn1c(SCC(=O)N2CCN(C(=O)c3ccco3)CC2)nc2ccccc2c1=O	.	10%	.	?
10	CCN(CC)CCOC(=O)c1cccc(Cl)c1	12%	0%	-2.0%	2%
11	O=C(COC(=O)c1ccc(Br)c(S(=O)(=O)N2CCOCC2)c1)NCC1CCCO1 (stereo not given)	5%	-2%	8.0%	-6%&-6%
12	COC(=O)/C(=C\c1cc(OC)c(OC)c(OC)c1)c1nc2ccccc2[nH]1	.	-7%	.	-16%[46.1 µM]
13	O=S(=O)(Nc1cccc(Cl)c1)c1ccc2[nH]c3c(c2c1)CCCCCC3	-27%	.	4.3%	.
14	COc1ccc(N2CCN(S(=O)(=O)c3cc4c(cc3C)NC(=O)CO4)CC2)cc1	.	-3%	.	.
15	Cc1ccccc1OCC(=O)Nc1ccc(S(=O)(=O)N2CCOCC2)cc1	.	-11%	.	?
16	CCOC(=O)[C@@H](CCc1ccccc1)N[C@H](C)C(=O)N1[C@H](C(=O)O)C[C@@H]2CCC[C@@H]21	.	0%[18.4 µM]	.	2%

entry	SARS PLP yeast	NS1 function inh	LASV entry inh	2A StopGo
9	0%	.	25%[46.1 µM]	-17%
10	-1%	-7%	-4%	-7%
11	-1%	1%	18%	-29%
12	5%	1%	?	16µM*
13	.	.	?	50%[activator]
14	-5%	-1%	.	?
15	-13%	-7%	?	-13%
16	1%	-13%	.	0%

Remaining list, next part
entry	smiles	Cruzain noTriton	RE007 growth inh	Cruzain Triton	MARV entry inh
17	Cc1nnc(NC2=NCCC2)o1	-8%	-12%	3.5%	3%
18	Cc1cc(C)nc(NC(=O)c2ccc(COc3ccccc3Cl)cc2)c1	.	-23%	.	?
19	O=C(CCc1nnc(COc2ccccc2)o1)NCCc1cccs1	.	-4%	.	.
20	COc1ccc(CCNC(=O)COC(=O)c2cccs2)cc1OC	.	6%	.	4%[46.1 µM]
21	Cc1cc(C(=O)CSc2nc(N)cc(=O)[nH]2)c(C)n1CCc1ccc(F)cc1	25µM*	13%	1.0%	?
22	COc1ncnc2c1cnn2-c1ccccc1	-3%	?	0.9%	0%
23	CCOc1ccc(-n2c(SCC(=O)Nc3ccc(Br)cc3)nc3n[nH]c(C)c3c2=N)cc1	.	25%	.	?
24	O=C(Nc1ccc(F)cc1)c1cc(-c2ccccc2)no1	.	7%	.	.

entry	SARS PLP yeast	NS1 function inh	LASV entry inh	2A StopGo
17	11%	-3%	4%	-9%
18	-1%	.	?	-18%
19	0%	-5%	.	28%
20	1%	3%	-12%[46.1 µM]	-5%
21	1%	12%	-22%	16µM*
22	.	-27%	7%	32%[activator]
23	-1%	.	-19%	-22%
24	0%	7%	.	51%[activator]

From entry 17 to 21, as listed above:
entry	smiles	Cruzain noTriton	RE007 growth inh	Cruzain Triton	MARV entry inh
17	Cc1nnc(NC2=NCCC2)o1	-8%	-12%	3.5%	3%
18	Cc1cc(C)nc(NC(=O)c2ccc(COc3ccccc3Cl)cc2)c1	.	-23%	.	?
19	O=C(CCc1nnc(COc2ccccc2)o1)NCCc1cccs1	.	-4%	.	.
20	COc1ccc(CCNC(=O)COC(=O)c2cccs2)cc1OC	.	6%	.	4%[46.1 µM]
21	Cc1cc(C(=O)CSc2nc(N)cc(=O)[nH]2)c(C)n1CCc1ccc(F)cc1	25µM*	13%	1.0%	?

entry	SARS PLP yeast	NS1 function inh	LASV entry inh	2A StopGo
17	11%	-3%	4%	-9%
18	-1%	.	?	-18%
19	0%	-5%	.	28%
20	1%	3%	-12%[46.1 µM]	-5%
21	1%	12%	-22%	16µM*

(further entries)
entry	smiles	Cruzain noTriton	RE007 growth inh	Cruzain Triton	MARV entry inh
25	Cc1cccc2cc(COC(=O)c3cccs3)c(=O)[nH]c12	5%	4%	-0.7%	1%
26	OC(c1ccccc1)C(NCCNCc1ccccc1)c1ccccc1 (stereo not given)	.	22%	.	?
27	C=CCc1ccc(OCCn2cncn2)c(OC)c1	.	4%	.	.
28	Cn1c(CNC(=O)CCNC(=O)c2ccccc2F)cc(=O)n(C)c1=O	.	8%	.	.
29	Cc1c(S(=O)(=O)N2CCN(c3cccc(Cl)c3)CC2)c(=O)n(C)c(=O)n1C	.	2%	.	-1%
30	CCCc1nnc(SCC(=O)Nc2ccc(OCC)cc2)n1N	1%	-1%	1.6%	1%
31	CCOC(=O)C1CCN(CC(=O)Nc2c(C(=O)OC)[nH]c3ccc(Cl)cc23)CC1	-2%	-8%	0.4%	10µM*
32	COc1ccc(NC(=O)C(NS(=O)(=O)c2cccc3nsnc23)C(C)C)cc1OC (stereo not given)	-13%	.	-3.7%	.

entry	SARS PLP yeast	NS1 function inh	LASV entry inh	2A StopGo
25	3.2µM*	-8%	-16%	0%
26	.	.	?	-20%
27	?	-14%	.	4%
28	-6%	4%	.	-7%
29	?	9%	-3%	-24%
30	-3%	-3%	6%	-16%
31	0%	-18%	?	?
32	.	.	13%[46.1 µM]	1%

The list goes on:
entry	smiles	Cruzain noTriton	RE007 growth inh	Cruzain Triton	MARV entry inh
33	COc1ccc(OCc2ccc(-c3nc(C#N)c(N4CCCCC4)o3)o2)cc1	-28%	.	-21%	10%[46.1 µM]
34	NS(=O)(=O)c1ccc(CCNC(=O)c2cc([N+](=O)[O-])ccc2N2CCCCC2)cc1	.	18%	.	-1%[46.1 µM]
35	COc1cccc(-c2ccc(=O)n(CC(=O)NCCN3CCOCC3)n2)c1	5%	10%	-2.7%	-2%
36	CSc1ncc(Cl)c(C(=O)Nc2ccc(S(=O)(=O)Nc3nccc(C)n3)cc2)n1	5%	-9%	-5.4%	-2%
37	COc1cc2c(C(=O)N3CCOCC3)c(CSc3ccccc3)n(C)c2cc1Br	.	7%	.	?
38	Cc1ccc(C)c2c1cc(C)c1nnc(SCC(=O)NCc3ccc4c(c3)OCO4)n12	16%	7%	-1.7%	?
39	CC1CC(NC(=O)c2cc3c(=O)n4ccccc4nc3n2C)CC(C)(C)C1 (stereo not given)	.	0%	.	?
40	CS(=O)(=O)c1ccc(-c2nnc(NC(=O)c3ccc(S(=O)(=O)N4CCCC4)cc3)o2)cc1	.	14%	.	13%

entry	SARS PLP yeast	NS1 function inh	LASV entry inh	2A StopGo
33	.	.	-18%[46.1 µM]	-7%
34	0%	1%	3%[46.1 µM]	23%
35	5%	-4%	0%	12%
36	1%	2%	?	32%&6%[activator]
37	-3%	.	?	?
38	2%	-10%	-2%	?
39	10%	-11%	14%[46.1 µM]	-18%
40	17%	.	?	-12%

(further entries)
entry	smiles	Cruzain noTriton	RE007 growth inh	Cruzain Triton	MARV entry inh
41	CCOC(=O)c1ccc(NC(=S)N2CCN(Cc3ccccc3)CC2)cc1	-5%	-12%	-2.3%	?
42	CSc1cccc(N2C(=O)C3CCCN3C2=S)c1 (stereo not given)	.	-6%	.	1%[46.1 µM]
43	C#CCOCCOCCOCCNc1nc(N2CCOCC2)nc(N2CCN(C(=O)[C@H]([C@@H](C)CC)n3cc([C@@H](N)Cc4ccc(O)cc4)nn3)CC2)n1	.	10%	.	.
44	CC(C)(C)OC(=O)NCCCC[C@H](NC(=O)c1nc[nH]c1C(=O)N1CCN(C(=O)OC(C)(C)C)CC1)C(=O)OC(C)(C)C	.	-1%	.	.
45	Cc1c(NC(=S)N/N=C/c2ccc(O)cc2)c(=O)n(-c2ccccc2)n1C	-10%	-1%	-5.5%	10%
46	O=C(c1nc2ccc(Cl)cn2c1CN1CCC(CO)CC1)N1CCc2ccccc2C1	.	-3%	.	9%
47	Cc1ccc(/C=N/NC(=O)Cc2ccc(Cl)cc2)c(O)c1	.	4%	.	?
48	O=C(O)CC(Sc1n[nH]c(=S)s1)C(=O)O (stereo not given)	.	13%	.	.

entry	SARS PLP yeast	NS1 function inh	LASV entry inh	2A StopGo
41	7%	-3%	-4%	0%
42	3%	2%	-8%[46.1 µM]	-7%
43	-1%	-1%	.	-1%
44	-2%	0%	.	?
45	-1%	1%	-5%	10%
46	1%	19%	1%	1%
47	-2%	1%	?	32%[activator]
48	1%	7%	.	-14%

High-throughput results from PubChem BioAssay.

Compounds as they come; overall some 4.6% were active at least once.
